PrP UTR inh – inhibition of PrP 5' UTR reporter expression; hit rate 0.35% among 340,000; cell-based PrP 5' UTR mRNA reporter, plate reader; inhibition, % (test concentration not listed); AID 488862;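 active means every replicate at 50% or more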;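 further: 0 = median of the neutral control wells; tested in H4 reporter cells; numbers are from one replicate; inactives centre near -14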
Mtb hypoxia rep – inhibitors of hypoxia-regulated fluorescent reporter in Mycobacterium tuberculosis. M. tuberculosis hypoxia-regulated fluorescent reporter, fluorescence. fluorescence inhibition, % (test concentration not listed). hit rate 0.1% among 300,000. AID 1159583;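 active means 35 to 45% if threefold the growth effect, above 45% if 1.5-fold the growth effect; inactive means the rest, general growth blockers included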;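 further: wells of about 50 µL received 100 nL stock; 0% = vehicle wells and 100% = reference inhibitor wells; whole bacteria with a GFP reporter of the hypoxia response; strong numbers were not always called active; many hits fall short of the cut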
BJeLR viability – BJeLR cell viability loss; BJeLR (HRASV12) viability, CellTiter-Glo ATP luminescence, 48 h; reference of the scale not given here; inhibition, % (no concentration beside the values); hit rate 0.17% among 300,000; AID 1554;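 active means replicate mean above 50%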;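 further: 50 nL library stock added to about 25 µL; numbers are from one replicate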
Autofluor counter – counter-screen for toxin protease inhibitors: compound fluorescence; compound autofluorescence counterscreen, microsphere flow cytometry; stronger effect = higher value; fluorescence intensity (concentration not given with the values); hit rate 3.1% among 360,000; AID 624483;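 active means at least 3 SD above the mean of all compounds, about 16000 in these data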;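 further: 100 nL of 1 mM stock went into each well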
ugtP null kill – growth inhibition of S. aureus ugtP deletion strain | hit rate 0.54% among 330,000 | growth inhibition, % (concentration not given with the values) | S. aureus RN4220 ugtP deletion, OD600 growth, 16 h; some inactives read as strong as hits | AID 1259309;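 active means z-score under -3 and OD600 up to 0.15 on both plates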;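 further: plate controls were untreated wells for no effect and antibiotic for full effect; wells of about 80 µL received 100 nL stock; the first replicate is given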
Sa RN4220 lethal – kills Staphylococcus aureus RN4220 | AID 1259311 | S. aureus RN4220 growth, OD600, 16 h | hit rate 0.33% among 330,000 | inhibition, % (test concentration not listed);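 active means z-score of -3 or lower and OD600 up to 0.18 on both plates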;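 further: plate controls were untreated cells for no effect and reference antibiotic for full effect; stock transfer was 100 nL into about 80 µL; one replicate is shown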
Mtb hypoxia rep growth – further read-out of Mtb hypoxia rep, marked with its call; growth inhibition, %; measured here: M. tuberculosis growth (absorbance);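 0% = vehicle and 100% = reference antibiotic; read after six days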
An asterisk follows results filed as active; · = not tested or not shown.

SMILES | PrP UTR inh | Mtb hypoxia rep | Mtb hypoxia rep growth | BJeLR viability | Autofluor counter | ugtP null kill | Sa RN4220 lethal
CC1CCC2(CC1)NC(=O)N(Cc1cccc(C(F)(F)F)c1)C2=O (centres undefined) | -7 | 5 | -9 | -5 | 2670 | -1 | 1.7
O=C(N/N=C/c1ccccn1)C12CC3CC(CC(C3)C1)C2 | -22 | · | · | 4 | 2577 | · | ·
COc1ccc(N2CCN(C(=O)c3cc4c(-c5cccc(OC)c5)nn(C)c4s3)CC2)cc1 | -8 | · | · | · | 3728 | 7 | 0.4
CC(NC(=O)c1ccc(F)cc1)c1ccc(F)cc1 (centres undefined) | -12 | · | · | 0 | 2100 | 9 | 4.8
O=C(NCCC1CCCCN1S(=O)(=O)c1ccccc1)C(=O)Nc1ccccc1F (centres undefined) | -9 | -12 | -3 | -2 | 3706 | 7 | 1.6
CCOC(=O)C1=C(CN2CCSCC2)NC(=O)NC1c1cccc([N+](=O)[O-])c1 (centres undefined) | -44 | 5 | 5 | 4 | 4163 | -9 | -1.5
COc1ccc(CCNC(=O)CSc2nc3[nH]ncc3c(=O)[nH]2)cc1OC | -13 | 0 | -2 | -5 | 2654 | 7 | 3.2
CC1CCC(NC(=O)COC(=O)C2=NN(c3ccccc3)C(=O)CC2)CC1 (centres undefined) | 13 | 2 | 24 | · | 3643 | 2 | 1.9
CCc1ccccc1NC(=O)CN1CCC(NC(=O)COC)CC1 | -14 | 2 | 13 | -6 | 23013* | -15 | 9.2
CCC(C)NS(=O)(=O)c1ccc(S(=O)(=O)N2CCCC3(CCCCC3)C2)cc1 (centres undefined) | -23 | 3 | 8 | 4 | 21732* | 3 | 9.9
COc1ccc(CCNC(=O)CSc2nc3ccccc3o2)cc1OC | -11 | 14 | 25 | 3 | 23875* | -10 | 10
CC(C)Cc1nc(C(N)=O)c2[nH]c(=O)n(-c3ccc(F)cc3)c2n1 | 6 | 6 | 6 | 2 | 5983 | 9 | 4.7
COCCn1c(SC(C)C(=O)Nc2ccc(Cl)cn2)nnc1-c1ccncc1 (centres undefined) | -20 | 0 | 4 | 2 | 4123 | 2 | -0.3
CCCN(Cc1ccc(N(CC)CC)cc1)CC1CC1 | -22 | 2 | 9 | 1 | 9323 | -4 | 3.7
O=C(NC1CCCCC1)c1ccc(CN2CCOCC2)cc1 | -27 | 4 | -1 | · | 3105 | -2 | -6.8
CCO[C@@H]1OC(C(=O)NCc2ccccc2)=C[C@H](C(C)(C)C)[C@H]1CCCO | -13 | · | · | -2 | 4136 | · | ·
Cc1cc(Br)ccc1SCC(=O)OC/C(O)=C(\C#N)c1nc2ccccc2[nH]1 | -18 | · | · | -9 | 4487 | · | ·
Cc1ccc(S(=O)(=O)Nc2cc(C(F)(F)F)ccc2N2CCOCC2)c(C)c1 | -19 | 9 | 5 | -10 | 1992 | 17 | 8.0
Cc1cccc2sc(N(CCN(C)C)C(=O)c3ccc4ccccc4c3)nc12 | -4 | -1 | 1 | -10 | 4717 | -9 | -5.5
S=C(Nc1ccc(Cl)cc1)N(CCCN1CCOCC1)Cc1cccs1 | 4 | 2 | 11 | -4 | 5176 | -1 | -0.2

Three entries out of the list, ordered by molecular weight, ascending.
SMILES | PrP UTR inh | Mtb hypoxia rep | Mtb hypoxia rep growth | BJeLR viability | Autofluor counter | ugtP null kill | Sa RN4220 lethal
CCCN(Cc1ccc(N(CC)CC)cc1)CC1CC1 | -22 | 2 | 9 | 1 | 9323 | -4 | 3.7
CCO[C@@H]1OC(C(=O)NCc2ccccc2)=C[C@H](C(C)(C)C)[C@H]1CCCO | -13 | · | · | -2 | 4136 | · | ·
Cc1cc(Br)ccc1SCC(=O)OC/C(O)=C(\C#N)c1nc2ccccc2[nH]1 | -18 | · | · | -9 | 4487 | · | ·

Additional results.
SMILES | PrP UTR inh | Mtb hypoxia rep | Mtb hypoxia rep growth | BJeLR viability | Autofluor counter | ugtP null kill | Sa RN4220 lethal
Cc1ccc(C(=O)OCC(=O)Nc2cc(F)ccc2F)cc1NC(=O)c1ccco1 | -32 | 4 | 9 | 1 | 8717 | 14 | -2.5
C[C@@]12C(=O)Nc3cc(Cl)ccc3C(=O)N1C1c3cc(Br)ccc3OCC1C2c1ccccc1 (some centres undefined) | · | 8 | 13 | · | · | -17 | -13
Cc1cc(S(=O)(=O)NCc2ccccc2)ccc1OCC(=O)NCC1CCCO1 (centres undefined) | -8 | -8 | -1 | 3 | 4585 | 1 | 5.3
CCCc1cc(=O)[nH]c(SCC(=O)Nc2ccc(S(=O)(=O)N3CCCC3)cc2)n1 | -10 | 5 | 2 | · | 3781 | -4 | 4.5
CSc1ccc(/C=N/N2CCN(Cc3ccccc3)CC2)cc1 | -19 | · | · | -4 | 2429 | · | ·
N#CC(C(=O)NC1CCCCC1)=C1CCCCCC1 | 6 | -4 | 3 | -15 | 9709 | -2 | 2.5
CC(Oc1ccccc1)C(=O)Nc1ccc(NC(=O)c2ccccc2)cc1 (centres undefined) | -6 | 3 | -4 | 1 | 6100 | 2 | 2.4
Cc1cccc(NC(=O)CS(=O)(=O)c2cn(CC(=O)N3CCOCC3)c3ccccc23)c1 | -13 | 10 | 3 | 10 | 4588 | 5 | 3.8
COCCSc1nc2c(c(=O)[nH]c(=O)n2C)n1Cc1cccc(C)c1 | -10 | 2 | 2 | -15 | 4883 | -2 | 6.4
Cc1cc(=S)c2cccc(C)c2[nH]1 | · | -1 | 4 | -3 | · | 70 | -7.9
O=S1(=O)CCN2C(c3ccc4c(c3)CCCC4)=CSC2=N1 | -5 | · | · | 5 | 4628 | 0 | 0.1
Cc1[nH]nc2c1C(c1ccc(Cl)cc1)C(C#N)=C(N)O2 (centres undefined) | -1 | · | · | -3 | 4724 | 8 | 6.0
COCCNS(=O)(=O)c1ccc(-c2ccc(S(=O)(=O)NCCOC)cc2)cc1 | -21 | 1 | 0 | · | 10808 | 8 | -1.3
CCOC(=O)c1ccc2c(c1)N(CC(=O)N1CCCC1)C(=O)C(C)(C)O2 | -10 | -5 | 9 | 7 | 23746* | -1 | 1.1
Cc1ccc(/C(N)=N/OC(=O)c2cc(-c3ccccc3)nc3ccccc23)cc1 | -4 | -3 | 2 | 12 | 6309 | -30 | -2.8
COC(=O)c1cc(Cl)c(N)cc1OC | -16 | 8 | 11 | 2 | 10748 | -2 | 2.8
CNC(=S)N(Cc1cc2cc(C)cc(C)c2[nH]c1=O)C1CCCC1 | -19 | 9 | 3 | -2 | 4488 | -10 | 6.6
Cc1oc2c(cc(NS(=O)(=O)c3ccc(F)cc3)c3ccccc32)c1C(=O)O | -16 | -10 | -13 | 7 | 4051 | -11 | 1.9
COc1ccc2[nH]c(=O)c(CN(CCO)S(=O)(=O)c3ccc(C)cc3)cc2c1 | -6 | -4 | 0 | 2 | 4189 | 6 | 3.9
COc1cccc(-n2c(SCC(=O)NCC3CCCO3)nc3c([nH]c4ccccc43)c2=O)c1 (centres undefined) | -7 | 7 | 8 | -5 | 5754 | -6 | 3.8
O=C(Oc1c(-c2ccccc2)oc2ccccc2c1=O)c1ccccc1 | -14 | 1 | -1 | 7 | 8199 | 4 | 3.8
O=C(Nc1ccccc1Cl)c1ccccc1Cl | -35 | 18 | 10 | -1 | 13224 | 8 | 5.6
COc1cc(C=NNC(=O)c2ccc(Cl)c(S(N)(=O)=O)c2)ccc1OCC(N)=O | · | 9 | 3 | · | · | 7 | -0.3
COc1ccc2[nH]c3c(=O)n(Cc4ccc(C(=O)N5CCC(C(N)=O)CC5)cc4)c(=S)[nH]c3c2c1 | -25 | 9 | 2 | -8 | 3759 | 7 | -1.5
Cc1ccc2c(c1)c(=O)c(Br)c(C)n2Cc1ccccc1 | -39 | -3 | 3 | 6 | 1795 | -25 | -8.6
Cc1c(CCOC(=O)c2ccc(Cl)cc2Cl)sc[n+]1CC(=O)c1ccc(Br)cc1 | -29 | 6 | 7 | · | 4277 | -19 | 52
Cc1ccccc1COC(=O)CCCC1=NS(=O)(=O)c2ccccc2N1 | -18 | -2 | 2 | 0 | 5505 | 0 | 1.7
COc1ccc([N+](=O)[O-])cc1NC(=O)CC1SC(=Nc2cccc(C)c2C)N(N=Cc2cccc(OC)c2OC)C1=O (centres undefined) | · | -6 | -2 | · | · | 8 | 3.7
NC(=O)C1CCN(C(=O)c2ccc(NS(=O)(=O)c3ccc(F)cc3)cc2)CC1 | -8 | 10 | 0 | · | 3659 | 3 | 3.2
COc1cccc(CN2CCNC(=O)C2CC(=O)NCC(C)(C)N2CCOCC2)c1OC (centres undefined) | 6 | 0 | -4 | -5 | · | 5 | 2.5
Cc1ccccc1N1C(=O)C(Cl)=C(N2CCCCCC2)C1=O | 0 | -7 | 4 | -6 | 3999 | 2 | 1.8
O=C(CN1C(=O)CC(c2ccco2)Sc2ccccc21)NCC1CCCO1 (centres undefined) | -19 | 14 | 8 | 1 | 23515* | 5 | 3.8
CCOC(=O)C(C)n1ncn2cccc2c1=O (centres undefined) | -29 | 8 | 10 | -1 | 2473 | -2 | -12
Cc1ccc(C(=O)C[n+]2ccc(Cc3ccccc3)cc2)cc1 | 1 | 9 | 3 | 15 | 4569 | 6 | 5.5
COCCn1cnnc1SCC(=O)Nc1cccc(S(=O)(=O)N2CCCCCC2)c1 | -15 | 6 | -1 | -1 | 2538 | 3 | 1.2
CCOC(=O)c1sc(-c2ccc(F)cc2)cc1NC(=O)Nc1ccccc1OC | -31 | -11 | -8 | -4 | 2408 | -3 | -2.9
Cc1ccc(C(=O)C2Oc3ccccc3C3CC(c4ccc(C)cc4)=NN23)cc1 (centres undefined) | -26 | -4 | -2 | 23 | 11970 | 11 | -2.3
CCOC(=O)NC(CC(=O)O)c1ccc(OC)cc1 (centres undefined) | 0 | · | · | 2 | 2173 | 1 | 2.5
CCCc1cnc(N2CCN(C(=O)c3ccccc3)CC2)nc1 | 3 | 6 | 1 | 11 | 3618 | 22 | -1.1
O=C1C=C(c2cc3ccccc3s2)CC(c2ccc(Cl)cc2)C1 (centres undefined) | · | 5 | 5 | · | · | 4 | 0.2
COc1cccc(CN(C)C(=O)CSc2nc3ccccc3[nH]2)c1OC | -27 | 3 | 1 | 0 | 4530 | 8 | 4.0
CCC1CCC(c2nnc(-c3ccc(Br)cc3)o2)CC1 (centres undefined) | -16 | 22 | 27 | 3 | 1994 | -7 | -1.2
COc1c(Cl)cc(Cl)cc1CNCc1ccccc1 | -19 | 1 | 4 | 3 | 2052 | 16 | 8.6
CC(C)CCN1C(=O)c2ccc(C(=O)NCc3ccccn3)cc2C1=O | -18 | -7 | -3 | -1 | 4554 | 7 | 2.2
Cc1ccc(C)c(S(=O)(=O)NN=Cc2ccc(N(C)C)cc2)c1 | · | 5 | -9 | · | · | 5 | 1.3
Cc1ccccc1-c1nc2ccccc2c(=O)n1/N=C/c1ccccc1[N+](=O)[O-] | -13 | · | · | 14 | 2816 | · | ·
CCN(C(=O)CCc1ccccc1)C1CCCCC1 | -37 | 24 | 15 | -2 | 3719 | 4 | 4.3
COCCN1C=C2C(=O)C(C)(OC(=O)CCC(=O)OC)C(=O)C=C2C=C1C1CC1 (centres undefined) | -6 | 5 | 4 | -3 | 3807 | 9 | 6.1
COC(=O)c1ccc(CNC(=O)C(NC(=O)c2ccco2)C(C)C)cc1 (centres undefined) | -16 | 0 | -1 | 3 | 4074 | 3 | 2.4
COC(=O)c1c(C)[nH]c(O)c1C=Nc1ccc(C#N)cc1 | 1 | 1 | 9 | -2 | 2930 | -4 | 4.5
CCCc1nnc(SCC(=O)N2CCOCC2)n1Cc1ccco1 | -4 | · | · | 1 | 4311 | 3 | -0.6
C=CCn1c(SCC(=O)Nc2ccc3c(c2)OCO3)nnc1-c1ccccc1OC | -13 | · | · | 4 | 4305 | -3 | 0.6
CC1CCN(C(=O)C2CCN(S(=O)(=O)c3ccc4c(c3)CC(C)N4C(=O)C3CC3)CC2)CC1 (centres undefined) | -7 | 5 | -2 | 5 | 5314 | 2 | 1.7

One compound at a time, from the list above. Order of screens: PrP UTR inh	Mtb hypoxia rep	Mtb hypoxia rep growth	BJeLR viability	Autofluor counter	ugtP null kill	Sa RN4220 lethal
Entry for CCN(C(=O)CCc1ccccc1)C1CCCCC1 = -37	24	15	-2	3719	4	4.3
Entry for COc1c(Cl)cc(Cl)cc1CNCc1ccccc1 = -19	1	4	3	2052	16	8.6
Entry for Cc1ccc(C)c(S(=O)(=O)NN=Cc2ccc(N(C)C)cc2)c1 = ·	5	-9	·	·	5	1.3

Assay outcomes: PubChem, several laboratories
